Source: PubChem (SRMLSC)
H5N1 antiviral: antiviral screen in MDCK cells, H5N1 avian flu. cytopathic effect, luminescence, 72 h; hits give high values; no value below 0 was filed and about half of the inactive calls have no number; reference of the scale not given here. inhibition, % at 50 µM. 96,000 compounds, 0.07% hits. AID 740; in the data active = inhibition above about 25%
An asterisk follows results filed as active; i = inactive. Only part of the results is shown; rates above refer to the full screens.

SMILES	H5N1 antiviral
CCCCC(=O)NCCNC(=O)c1cc(OCC(F)(F)F)ccc1OCC(F)(F)F	i
Cc1ccc2c(c1)c1c3n2CCCNC3CCC1 (stereo unspecified)	i
COc1ccccc1NC(=O)CSc1nc2ccccc2c(=O)n1CCNC(C)=O	i
COc1cc2cc(CN(CCN3CCCC3)C(=O)Nc3ccccc3Cl)c(=O)[nH]c2cc1OC	i
Clc1ccc(-c2cc3ccccc3nc2N2CCCC2)cc1	0.1
CCCCN(C)C(=O)CCCCn1c(=O)[nH]c2cc(OCC)c(OCC)cc2c1=O	i
Cc1ccccc1NC1=C(C(=O)c2ccccc2)N(C)S(=O)(=O)c2ccccc21	i
CCOC(=O)c1c(NC(=O)CSc2nncs2)sc(C)c1C	0.6
COc1cc(C(=O)Nc2ccc3c(c2)OCO3)ccc1-n1cnnn1	0.1
Cc1cc(Br)ccc1OCc1nc(-c2cccnc2)no1	i
Cc1noc(C)c1CSc1nnc(-c2ccccc2)n1Cc1ccco1	0.1
Cc1nn(CCOc2ccccc2)c(=O)n1-c1ccc(F)cc1	0.1
Cc1cccc(NC(=O)c2cc(NC(=O)C3CC=CCC3C(=O)O)ccc2N2CCOCC2)c1 (stereo unspecified)	1.2
Cc1nc2ncnn2c(N2CCCC(C(=O)Nc3ccc4c(c3)CCC4)C2)c1C (stereo unspecified)	i
O=C(OCc1nnc(-c2ccccc2)o1)c1ccc2ccccc2n1	0.1
CCN(Cc1ccccc1)C(=O)CSc1nc(C)cc(C)c1C#N	2.3
CCOC(=O)N1CCN(C(=O)COc2ccc(Cl)cc2C)CC1	0.8
CCn1c(Cc2cccs2)nnc1SCC(=O)c1ccc(C)cc1	i
CCCc1nnc(NC(=O)Cn2c(=O)oc3ccccc32)s1	i
CN(C)NC1CCS(=O)(=O)C1 (stereo unspecified)	0.3
CC12/C(=N/O)C3C4CC5C3/C(=N/O)C1C5C42 (stereo unspecified)	1.3
C=CCn1c(N)c(C(=O)Nc2cccc(C)c2)c2nc3ccccc3nc21	i
COc1cc(C)c(C#N)c(OC)n1	i
CC(=O)c1c(C)[nH]c(C(=O)NCCN2CCC(C)CC2)c1C	i
CCc1ccc(OCc2ccc(C(=O)NCc3ccccn3)o2)cc1	0.8
O=C(CC(C(=O)N1CCc2ccccc21)n1ccnc1)N1CCc2ccccc2C1 (stereo unspecified)	1.4
C=CCn1c(SCC)nc2sc3c(c2c1=O)CCc1ccccc1-3	0.4
COc1cc(C(Nc2ccccn2)c2ccc3ccc(C)nc3c2O)cc(OC)c1O (stereo unspecified)	i
Fc1ccc(Cn2nnnc2CN2CCN(C3CCCCC3)CC2)cc1	i
CC1CCCCC1NC(=O)Cn1ncc2ccccc21 (stereo unspecified)	0.1
O=C(N/C(=C/c1ccc(Br)cc1)c1nc2ccccc2[nH]1)c1ccco1	2.5
Nc1nc(-c2cccc(NS(=O)(=O)c3ccccc3)c2)cs1	0.3
CCc1nnc(NCC(=O)N2CCc3ccccc32)s1	i
CCn1c2ccccc2c2cc(NC(=O)CSc3nnc(-c4ccccc4)o3)ccc21	0.1
CC(=O)Nc1ccc(NC(C)=O)s1	i
Cc1cc(C)n(-c2ccc(C(=O)Nc3ccc4c(c3)OCO4)cc2)n1	i

An excerpt from the list above, as a working copy:
SMILES	H5N1 antiviral
Fc1ccc(Cn2nnnc2CN2CCN(C3CCCCC3)CC2)cc1	i
CC1CCCCC1NC(=O)Cn1ncc2ccccc21 (stereo unspecified)	0.1
O=C(N/C(=C/c1ccc(Br)cc1)c1nc2ccccc2[nH]1)c1ccco1	2.5
Nc1nc(-c2cccc(NS(=O)(=O)c3ccccc3)c2)cs1	0.3
CCc1nnc(NCC(=O)N2CCc3ccccc32)s1	i
CCn1c2ccccc2c2cc(NC(=O)CSc3nnc(-c4ccccc4)o3)ccc21	0.1

New compounds follow.
SMILES	H5N1 antiviral
Cc1ccc(OCC(=O)NNC(=O)c2cc3ccccc3o2)cc1	i
O=C(Oc1cccc2cccnc12)c1cccs1	1.4
COc1cccc(-c2nnn(CCC(=O)O)n2)c1	0.4
O=C1C2CCCN2C(c2cccnc2)N1c1cccc(Cl)c1 (stereo unspecified)	0.2
O=C(CSc1nnc(COc2ccc(Cl)cc2)o1)N1CCN(c2ccccc2)CC1	0.2
O=C(CSc1ncn(-c2ccccc2)n1)N1CCc2ccccc21	i
COc1ccc2c3c(cccc13)N(C)N=C2C	i
Cc1cc(C)n(-c2nc3c(c(=O)[nH]c(=O)n3C)n2C(C)C)n1	i
COc1cccc(NC(=O)c2cn(C)c(=O)c3cc(OC)c(OC)cc23)c1	0.1
O=C(c1cc2cc(Br)ccc2oc1=O)N1CCCC1	i
N/C(=N\S(=O)(=O)c1cccs1)c1ccccc1	i
CCCC(=O)Nc1nc(C)c(-c2csc(Nc3ccccc3OC)n2)s1	i
Cc1cc2cc(CNC(=O)c3ccc(S(=O)(=O)N4CCCC4)cc3)ccc2n1C	1.0
COc1ccc2c(c1)c1nc(SCC(C)C)n(CCO)c(=O)c1n2C	0.5
N#Cc1c(SCC(=O)N2CCOCC2)nsc1SCC(=O)N1CCOCC1	0.4
CC(Sc1nnnn1C)C(=O)Nc1ccccc1-c1ccccc1 (stereo unspecified)	2.3
COc1ccc(Cl)cc1C(=O)N1CCN(c2ccccn2)CC1	0.4
Cc1cc(OCCOc2cccc3cccnc23)cc(C)c1Cl	i
Cc1ccc(C)c(C2=CSC3=NS(=O)(=O)CCN23)c1	1.0
CC(C)COP(=O)(c1ccc(N(C)C)cc1)C(O)c1ccccc1F (stereo unspecified)	0.7
Cc1ccc(N=C2NC(=O)CS2)cc1	0.7
CCCCc1nc(NCCN2CCOCC2)c(C#N)c2c1COC(C)(C)C2	i
CCN1C(=O)CSc2ccc(C(=O)NCc3ccccc3OC)cc21	0.6
Cc1nc2ccc(NC(=O)N3CCSCC3)cc2s1	i
CS(=O)(=O)N(CC(=O)N1CCc2ccccc2C1)Cc1ccc(Cl)cc1	i
CCN1CCN(/C=N/c2nc3c(s2)CCCC3)CC1	i
CCOC(=O)CC(=O)Nc1ccc(C(=O)OCC)cc1	i
CC1CCN(C(=O)c2ccc(NC(=O)C3CCCO3)cc2)CC1 (stereo unspecified)	1.8
CCOC(=O)N1CCC(NC(=O)CS(=O)(=O)Cc2nc(-c3cccc(OC)c3)oc2C)CC1	0.2
COc1ccc(CCN(C)C(=O)CN2C(=O)c3ccccc3S2(=O)=O)cc1OC	i
c1ccc2c(c1)ncn2CCC1CCCCC1	2.7
CCn1nc(C)c(NC(=O)c2cc(Br)ccc2Cl)c1C	0.2
COC(=O)CSc1snnc1-c1ccc(Cl)c(Cl)c1	1.5
CC12CCC(=O)N1C(C(=O)OCC(=O)Nc1sccc1C#N)CS2 (stereo unspecified)	0.6
Cc1nn(Cc2ccccc2)c(C)c1NC(=O)CSc1nnc(-c2cc(Cl)ccc2O)n1C	0.5
CCOC(=O)CSc1nc(N)c(C#N)c(-c2ccc(OCC)cc2)c1C#N	0.1

An excerpt of these results, in markdown.
| SMILES | H5N1 antiviral |
| --- | --- |
| CCOC(=O)N1CCC(NC(=O)CS(=O)(=O)Cc2nc(-c3cccc(OC)c3)oc2C)CC1 | 0.2 |
| CCn1nc(C)c(NC(=O)c2cc(Br)ccc2Cl)c1C | 0.2 |
| CS(=O)(=O)N(CC(=O)N1CCc2ccccc2C1)Cc1ccc(Cl)cc1 | i |
| CCOC(=O)CSc1nc(N)c(C#N)c(-c2ccc(OCC)cc2)c1C#N | 0.1 |
| COc1ccc(CCN(C)C(=O)CN2C(=O)c3ccccc3S2(=O)=O)cc1OC | i |

(listing goes on)
SMILES	H5N1 antiviral
CN1CCN(/C=N/c2c(C#N)cnn2-c2ccccc2)CC1	0.1
Cc1ccc(CNC(=O)CCS(=O)(=O)c2cccc3nonc23)cc1	i
O=C(O)c1ccc(-c2ccc(O)c(F)c2)cc1	0.3
Cc1cccc(NS(=O)(=O)c2cccc3nsnc23)c1	0.1
Cc1nc2ccccc2c(=O)n1/N=C/c1ccc(N(C)C)cc1	1.9
CSc1cccc(NC(=O)c2c(Cl)cnn2C)c1	0.3
CCCCn1nnnc1NCc1ccc(N(CC)CC)cc1	i
CCOCC(=O)Nc1ccc(S(=O)(=O)Nc2ncccn2)cc1	i
CCCCCn1ccc(=N)cc1	i
Cc1c(C(=O)Nc2ccc3c(c2)OCO3)sc2nc(-c3ccccc3)cn12	i
S=C(Nc1ccc(N2CCOCC2)cc1)Nc1ccc2nc(-c3ccco3)c(-c3ccco3)nc2c1	i
CCOc1ccc(NC(=O)COc2nsnc2N2CCCCC2)cc1	0.4
N#Cc1nc(-c2cccc3ccccc23)oc1NCCN1CCOCC1	i
O=C(NCc1ccc(Cl)cc1)c1noc2c1CCCC2	i
COc1ccc2c(c1OC)C(=O)N1c3cccc(Cl)c3C(=O)OC21 (stereo unspecified)	0.1
CCOC(=O)N1CCN(C(=O)c2ccc(CNS(=O)(=O)c3ccc(OC)cc3)cc2)CC1	1.6
O=C(CC1CCCCC1)NCCCN1CCOCC1	i
CN1CCN(C(=O)c2ccc3c(=O)n4c(nc3c2)CCCCC4)CC1	0.6
CCC(C)NC(=O)c1cn(-c2cccc(C)n2)cn1 (stereo unspecified)	i
c1ccc(CC2CCN(c3nnnn3-c3ccccc3)CC2)cc1	0.6
CN(C)C(=O)Oc1ccc(OC(=O)N(C)C)cc1	i
CC1N/C(=C\C(=O)c2ccccc2)N(O)C1(C)C (stereo unspecified)	i
COc1ccc(C2C(C(N)=O)=C(C)Nc3nc(-c4ccccc4)nn32)cc1OC (stereo unspecified)	i
COc1cccc2cc(C(=O)N3CCc4ccccc43)c(=O)oc12	i
Cc1ccc(NC(=O)COS(=O)c2ccc(C)cc2)cc1 (stereo unspecified)	i
COc1ccc(NC2C=CS(=O)(=O)C2)c(OC)c1 (stereo unspecified)	i
CC(=O)c1ccc(NC(=S)NC(NC(=O)c2ccco2)C(Cl)(Cl)Cl)cc1 (stereo unspecified)	i
CCOc1cccc(C(=O)Nc2cnn(Cc3ccccc3)c2)c1	i
Cc1ccc(C(=O)NC(Cc2c[nH]c3ccccc23)C(=O)O)cc1 (stereo unspecified)	0.6
Cc1cc(C)cc(NS(=O)(=O)c2cnc(Cl)c(Cl)c2)c1	i
CCOC(=S)NC(=O)c1sc2ccccc2c1Cl	i
O=S(=O)(NCc1cccs1)c1cccc2cccnc12	5.5
COc1ccc(OCCSc2nnc(-c3ccccc3)n2N)cc1	i
Cc1ccc(CSc2nnc(-c3ccncc3)n2C)cc1	i
CCN(CC)C(=O)c1c[nH]c2ccc(S(=O)(=O)Nc3cc(C)cc(C)c3)cc2c1=O	i
C=CCC(C=C)S(=O)(=O)c1ccc(C)cc1 (stereo unspecified)	0.2
CC(=O)Nc1cccc(OC(=O)c2ccoc2C)c1	i
Cc1ccc(S(=O)(=O)Nc2c(C)nn(C)c2C)cc1	0.4
C=CCc1ccc(OCCCCN2CC(C)OC(C)C2)c(OC)c1 (stereo unspecified)	0.4
CC1=Nc2ccccc2NC(=O)C1Sc1nnc(C)s1 (stereo unspecified)	0.1
CC(C)OC(=O)CSc1nnc(-c2ccc(Cl)cc2)n1N	i
O=C(O)CSCCC(=O)Nc1ccc(F)cc1	0.9
CCCCn1c(CNC(=O)CCC)nc2ccccc21	0.9
COC(=O)CC1SC(=O)NC1=Nc1ccc(C)cc1 (stereo unspecified)	0.9
Cc1onc(-c2ccccc2)c1C(=O)NCc1cccs1	i
CCOC(=O)Nc1nc(-c2ccccc2)c(C(=O)c2ccc(Cl)cc2)s1	0.5
CCCN1/C(=C2/SC(=S)N(CC)C2=O)C=Cc2ccccc21	i
O=P(O)(CCc1ccccc1)C(O)c1ccccc1 (stereo unspecified)	i
NC(=O)c1sc2nccc(Nc3ccccc3)c2c1N	0.6
COC(=O)c1cc2n3ccccc3c(C)c(-c3ccccc3)c-2c1C(=O)OC	1.4
CC1=C(C#N)C(c2cccnc2)C2=C(CC(C)(C)CC2=O)N1 (stereo unspecified)	i
CCS(=O)(=O)Nc1ccc(-c2ccc(NS(=O)(=O)CC)c(OC)c2)cc1OC	0.7
Cc1cc(C)c(OCC(=O)Nc2cccc(O)c2)cc1C	i
CCCn1c(NCc2ccc(N(C)C)cc2)nc2ccccc21	i
O=C(NNC(=O)c1ccc2ccccc2c1O)c1ccccc1Cl	0.1
Nc1cc(N)nc(SCC(=O)N2CCN(C(=O)c3ccco3)CC2)n1	0.2
COc1cc(NC(=O)c2ccc3c(c2)OCO3)c2ncccc2c1	i
CC(=O)c1ccc(N2CCN(C(=O)c3ccc(NC(=O)C4CCCO4)cc3)CC2)cc1 (stereo unspecified)	0.4
COc1cccc(NC(=O)N2CCC(C(N)=O)(N3CCCCC3)CC2)c1	0.3
OCCNC1=NCCN1	0.1

Another view of 4 compounds above:
Cc1cc(C)c(OCC(=O)Nc2cccc(O)c2)cc1C
  H5N1 antiviral = i
CCCn1c(NCc2ccc(N(C)C)cc2)nc2ccccc21
  H5N1 antiviral = i
O=C(NNC(=O)c1ccc2ccccc2c1O)c1ccccc1Cl
  H5N1 antiviral = 0.1
Nc1cc(N)nc(SCC(=O)N2CCN(C(=O)c3ccco3)CC2)n1
  H5N1 antiviral = 0.2

(more compounds)
SMILES	H5N1 antiviral
c1ccc(COCCN2CCN(CCOCc3ccccc3)CC2)cc1	0.8
COc1cc(NC(=O)c2ccco2)c(OC)cc1NC(=O)CSc1nnc(-c2cccs2)n1C	i
CCOc1ccccc1OCCCC(=O)Nc1ccc(OC)nc1	i
COCc1nc(-c2cc(Br)ccc2OC)no1	0.2
Cc1cccc(NC(=O)CSc2nnc([C@@H](N)Cc3c[nH]c4ccccc34)o2)c1C	i
COc1ccc2nc(N=Nc3ccc(N(C)C)cc3)sc2c1	i
CC1(C)C(=O)OC(C(=O)c2ccc(C(C)(C)C)cc2)C(C)(C)C1=O (stereo unspecified)	1.4
CCOc1ccc(C2=Nn3c(nnc3-c3ccccc3OC)SC2)cc1	2.1
CCS(=O)(=O)C(=C(Nc1ccc(OC)cc1)Nc1ccc(OC)cc1)S(=O)(=O)CC	0.2
COC(=O)c1cn(CCOc2ccccc2)c2ccccc12	i
COc1ccc(CNC(=O)CS(=O)Cc2nc(-c3ccccc3C)oc2C)cc1 (stereo unspecified)	0.4
CCOC(=O)C1=C(O)/C(=C/c2cc(OC)c(OC)c(OC)c2)N=C1C	i
Cc1cc(NC(=O)c2noc3c2CCCC3)no1	0.5
COc1ccc(S(=O)(=O)N2CCN(C(=O)c3c(-c4ccccc4)noc3C)CC2)cc1	1.2
